B2AR ag: agonists of human beta-2 adrenergic receptor inducing internalization | P07550 | Am2.2-beta2AR cells, FAP receptor internalization, flow cytometry; reference of the scale not given here | response, % (test concentration not listed) | actives 0.43% (n = 340,000);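 active means response above a set limit, near 3 SD of response in nonfluorescent compounds, cut at about 42% in these data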;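 further: stock transfer was 100 nL into about 11 µL; a reference agonist was the positive control; negative values mostly stem from fluorescent compounds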
HNF4A DNA FP: change in binding of human HNF4 alpha to DNA; P41235; HNF4a-FITC DNA binding, fluorescence polarization, 1 h; activity change, % at 10 µM; actives 0.3% (n = 360,000); in the data active means activity change above about 30%, passing the limit was not always enough;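 further: controls were the assay level and a saturating level of protein; the project sought stronger binding though the title names inhibitors; some compounds called inactive have numbers as strong as hits; positive values seem to mean higher polarization but the record does not say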
Target sequence (P41235 whole entry, looked up): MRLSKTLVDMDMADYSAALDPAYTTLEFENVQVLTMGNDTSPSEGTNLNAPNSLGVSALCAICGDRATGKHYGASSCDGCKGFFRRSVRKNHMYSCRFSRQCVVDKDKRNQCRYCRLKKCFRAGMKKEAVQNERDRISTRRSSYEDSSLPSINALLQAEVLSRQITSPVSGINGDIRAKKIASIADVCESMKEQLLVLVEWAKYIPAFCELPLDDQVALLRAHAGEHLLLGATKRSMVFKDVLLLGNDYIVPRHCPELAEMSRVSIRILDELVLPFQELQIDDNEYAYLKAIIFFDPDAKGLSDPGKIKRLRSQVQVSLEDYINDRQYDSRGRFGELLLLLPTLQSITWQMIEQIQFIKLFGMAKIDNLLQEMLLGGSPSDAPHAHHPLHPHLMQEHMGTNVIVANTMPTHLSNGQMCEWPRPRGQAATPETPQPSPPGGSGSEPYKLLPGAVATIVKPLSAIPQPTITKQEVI
FGF22 binding: FGF22 (human) thermal shift binding | recombinant FGF22 thermal shift, SYPRO orange fluorescence; percent of sucrose octasulfate shift, DMSO zero | calls only at 9.99 µM | Q9HCT0 | actives 1.5% (n = 340,000);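 active means melting point raised past a set limit in the mean and every replicate; three in four hits are not shown here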
rRNA inh HTS: inhibitors of bacterial rRNA selective over humanized ribosomes; actives 1.6% (n = 350,000); GFP signal change (wild-type ribosome), % (no concentration beside the values); AID 720706; E. coli WT GFP vs humanized-ribosome RFP mutants, fluorescence, 24 h; hits give low values; DMSO median 0, no signal -100;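 active means significant combined selectivity score with lowered wild-type GFP, culture density cut under 30%, mutant RFP and density less affected; inactive means any of these conditions unmet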; further: one replicate is shown; some compounds called inactive have numbers as strong as hits
Ecoli growth: blocks Escherichia coli growth | OD600, 23 h; hits give low values | OD600 absorbance (no concentration beside the values) | actives 0.21% (n = 330,000) | AID 1053175;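 active means OD600 absorbance below the run mean of sample wells minus 3.6 SD, in any replicate, cut at about 0.56 in these data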;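 further: stock transfer was 300 nL into about 60 µL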
ALR H2O2 inh: blocks human ALR sulfhydryl oxidase activity; P55789; purified ALR, DTT oxidation, H2O2 HRP-luminol luminescence; inhibition, % (no concentration beside the values); actives 3.8% (n = 290,000);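 active means mean and each replicate at 75% or more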;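 further: stock transfer was 7.5 nL into about 7.5 µL; 0% = neutral wells and 100% = wells with inactivated enzyme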
Target sequence (P55789 whole entry, looked up): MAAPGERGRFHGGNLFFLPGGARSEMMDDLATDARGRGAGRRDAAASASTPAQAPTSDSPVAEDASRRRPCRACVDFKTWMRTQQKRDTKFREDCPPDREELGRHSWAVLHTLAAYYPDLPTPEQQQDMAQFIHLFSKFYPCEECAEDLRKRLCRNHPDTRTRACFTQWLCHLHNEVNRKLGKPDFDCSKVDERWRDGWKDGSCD
UCH37 DUB inh: blocks the human deubiquitinase UCH37; inhibition, % (test concentration not listed); actives 0.33% (n = 330,000); purified proteasome/UCH37, Ub-AMC cleavage fluorescence; AID 588478;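 active means mean of two replicates above 20%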;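 further: 0% = compound-free wells with enzyme and 100% = wells lacking proteasome; stock transfer was 100 nL into about 20 µL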
Target sequence (Q9Y5K5 whole entry, looked up): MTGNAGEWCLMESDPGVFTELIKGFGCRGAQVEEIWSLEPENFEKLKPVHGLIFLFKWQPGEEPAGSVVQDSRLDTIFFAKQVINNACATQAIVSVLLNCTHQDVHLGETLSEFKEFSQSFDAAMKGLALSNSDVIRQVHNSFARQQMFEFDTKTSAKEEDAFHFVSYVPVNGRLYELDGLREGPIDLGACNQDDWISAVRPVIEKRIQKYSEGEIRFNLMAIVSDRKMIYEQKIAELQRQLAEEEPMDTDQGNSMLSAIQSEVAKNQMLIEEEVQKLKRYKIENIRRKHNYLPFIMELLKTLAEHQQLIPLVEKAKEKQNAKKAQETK
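assay system = human UCH37 enzyme supplied as purified proteasome complex | amount = proteasome at 0.15 nM in the dispensed enzyme solution | schedule = 30 min compound-proteasome preincubation then 25 min substrate reaction, room temperature | measured by = fluorescence, ex 355 nm, em 460 nm | benchmarks = no-proteasome wells (full inhibition) and compound-free wells (no inhibition)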
rRNA inh HTS OD600: further read-out of rRNA inh HTS, marked with its call; OD600 change, %; measured here: OD600 growth;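 optical density of the mix in the first replicate; 0 = DMSO median and -100 = no signal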
rRNA inh HTS RFP: recorded beside rRNA inh HTS, whose call it bears; RFP signal change, %; measured here: RFP humanized mutant strains;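 first replicate; 0 = DMSO median and -100 = no signal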
* = called active by the depositor; i = inactive; x = not tested or not shown; & = joins results of further samples. These rows are one share of the data; the hit share may differ from the screen's.

The line under a structure holds: B2AR ag	HNF4A DNA FP	FGF22 binding	rRNA inh HTS	rRNA inh HTS OD600	rRNA inh HTS RFP	Ecoli growth	ALR H2O2 inh	UCH37 DUB inh
- O=C(NCC1CCCO1)/C(=C\c1ccco1)NC(=O)c1ccccc1 (stereo unspecified)
  0	3.6	x	x	x	x	x	40	0.2
- CC1(C)CC(=O)c2cnc(NC(=O)C3CCCC3)nc2C1
  -11	-1.3	x	x	x	x	0.71	-14	1.6
- O=C(O)Cc1ccc2ccc3ccccc3c2c1
  -2	-1.2	i	x	x	x	0.64	-2	6.7
- Nc1c(C(=O)NCC2CCCO2)sc(=S)n1-c1ccccc1 (stereo unspecified)
  6	1.6	x	x	x	x	0.69	85*	7.2
- CC1CCN(S(=O)(=O)N2CCC(C(=O)N3CCC(N(C)CC4CCCO4)CC3)CC2)CC1 (stereo unspecified)
  -3	6.2	i	2	-2	-2.7	0.65	4	13
- CCn1ncc([N+](=O)[O-])c1C(=O)NC1CCCCC1
  3	0.6	i	9	4	-0.5	0.71	-14	3.4
- FC(F)(F)COc1ccc(-n2ccnc2)nn1
  4	-2.1	x	28	11	-0.4	0.69	-6	3.3
- Cc1ccc(N2CC(C(=O)N3CCCc4ccccc43)CC2=O)cc1 (stereo unspecified)
  -6	-0.9	i	-21	-20	-0.8	0.64	-6	1.7
- Cc1nc(NCC2CC2)c2nnn(Cc3ccccc3)c2n1
  -3	-1.4	i	-5	10	3.3	0.73	-5	4.4
- Cc1nn(-c2ccccc2)c2c1c(C)c(CCC(=O)NCC1CCCO1)c(=O)n2C (stereo unspecified)
  -2	4.3	i	-1	2	-0.1	0.67	4	0.2
- CCCc1cc(C(N)=O)c(NC(C)=O)s1
  -3	0.3	x	x	x	x	0.68	4	3.8
- COc1ccc(/C=N/NC(=O)c2cccc(NC(=O)c3ccc(F)cc3)c2)c(C(=O)O)c1OC
  -11	0.5	i	x	x	x	x	12	x
- Cc1cc(C(=O)Nc2c(C)n(C)n(-c3ccccc3)c2=O)on1
  4	-1.9	i	9	3	2.0	0.69	-9	-1.1
- CCOc1cccc(-c2c(C(=O)N/N=C(\C)c3ccccn3)nnn2-c2nonc2N)c1
  -7	2.7	i	-26	-25	-6.9	x	-2	x
- Cn1c(COc2ccccc2)nnc1SCC(=O)Nc1nnc(C2CC2)s1
  13	0.4	i	11	16	-0.8	x	x	x
- Cc1cc(N2CCOCC2)ccc1/C=C1\NC(=O)N(CC(=O)Nc2ccc(F)cc2)C1=O
  -3	2.2	x	18	8	-0.6	x	9	-0.8
- CCOC(=O)C1CCN(c2c(NCc3ccc(C(=O)Nc4ccc(C)cc4)cc3)c(=O)c2=O)CC1
  2	-2.4	i	12	18	4.7	0.71	45	6.8
- Cc1ccc(/C=C2/C(=O)N=C(N)N2C)s1
  3	-2.4	i	x	x	x	0.69	-3	11
- CCc1nnc(N/N=C/c2ccc(O)c(OC)c2)n1N
  7	-1.0	i	-7	2	-6.2	x	x	x
- CC1(C)C=Cc2c(ccc3c2OC[C@@H](c2ccc(O)cc2O)C3)O1
  45*	-3.1	i	-57	-83	-34	0.62	x	3.4
- O=C1CC(C(=O)Nc2ccc(Cl)cc2)S/C(=N\N=C\c2ccco2)N1 (stereo unspecified)
  6	3.1	i	-5	1	5.4	x	4	x
- CCc1ccc(NC(=O)CSCCN2C(=O)c3ccccc3C2=O)cc1
  -15	-0.5	i	8	6	-0.1	0.69	2	2.8
- CCOc1ccc(NC(=S)N2CCN(S(=O)(=O)c3ccc(OC)cc3)CC2)cc1
  -21	1.0	i	-10	-10	2.4	0.69	-23	1.0
- COc1ccc2ccccc2c1/C=N/n1cnnc1
  1	-0.4	i	-3	-4	-1.0	x	-21	x
- COCC1CCCN(C(=O)c2cc(COc3ccc(C(C)=O)cc3)on2)C1 (stereo unspecified)
  -4	0.4	i	-4	0	0.8	0.69	-7	2.9
- Cc1oc(-c2ccc(Cl)cc2)[n+]([O-])c1C
  1	1.9	x	x	x	x	0.66	x	-0.4
- C[C@H]1CN([C@@H](C)CO)C(=O)c2cc(C3=CCCC3)cnc2O[C@@H]1CN(C)C(=O)c1ccncc1
  x	3.5	i	5&2	3&-6	0.5&-4.5	x	x	x
- Cc1cc(/C=C2\SC(=O)N(C)C2=O)c(C)n1-c1ccc(S(N)(=O)=O)cc1
  4	1.9	i	24	-26	8.5	0.67	2	-0.2
- COC(=O)Nc1ccc2c(c1)N(C(=O)CCN1CCN3CCCC3C1)c1ccccc1S2 (stereo unspecified)
  -8	3.4	x	x	x	x	0.71	16	4.7
- COc1ccc(C(=O)Nc2ccc(-c3n[nH]c(=S)o3)cc2)cc1OC
  -8	5.6	i	-4	4	-1.6	0.63	29	5.5

Rewritten as a markdown table: nine of the compounds above
| Structure | B2AR ag | HNF4A DNA FP | FGF22 binding | rRNA inh HTS | rRNA inh HTS OD600 | rRNA inh HTS RFP | Ecoli growth | ALR H2O2 inh | UCH37 DUB inh |
| --- | --- | --- | --- | --- | --- | --- | --- | --- | --- |
| O=C(NCC1CCCO1)/C(=C\c1ccco1)NC(=O)c1ccccc1 (stereo unspecified) | 0 | 3.6 | x | x | x | x | x | 40 | 0.2 |
| CC1(C)CC(=O)c2cnc(NC(=O)C3CCCC3)nc2C1 | -11 | -1.3 | x | x | x | x | 0.71 | -14 | 1.6 |
| O=C(O)Cc1ccc2ccc3ccccc3c2c1 | -2 | -1.2 | i | x | x | x | 0.64 | -2 | 6.7 |
| Nc1c(C(=O)NCC2CCCO2)sc(=S)n1-c1ccccc1 (stereo unspecified) | 6 | 1.6 | x | x | x | x | 0.69 | 85* | 7.2 |
| CC1CCN(S(=O)(=O)N2CCC(C(=O)N3CCC(N(C)CC4CCCO4)CC3)CC2)CC1 (stereo unspecified) | -3 | 6.2 | i | 2 | -2 | -2.7 | 0.65 | 4 | 13 |
| CCn1ncc([N+](=O)[O-])c1C(=O)NC1CCCCC1 | 3 | 0.6 | i | 9 | 4 | -0.5 | 0.71 | -14 | 3.4 |
| FC(F)(F)COc1ccc(-n2ccnc2)nn1 | 4 | -2.1 | x | 28 | 11 | -0.4 | 0.69 | -6 | 3.3 |
| Cc1ccc(N2CC(C(=O)N3CCCc4ccccc43)CC2=O)cc1 (stereo unspecified) | -6 | -0.9 | i | -21 | -20 | -0.8 | 0.64 | -6 | 1.7 |
| Cc1nc(NCC2CC2)c2nnn(Cc3ccccc3)c2n1 | -3 | -1.4 | i | -5 | 10 | 3.3 | 0.73 | -5 | 4.4 |

Next records follow:
The line under a structure holds: B2AR ag	HNF4A DNA FP	FGF22 binding	rRNA inh HTS	rRNA inh HTS OD600	rRNA inh HTS RFP	Ecoli growth	ALR H2O2 inh	UCH37 DUB inh
- Nn1c(SCC(=O)NCCC2=CCCCC2)nnc1C(F)(F)F
  0	3.0	i	4	-1	-2.9	0.73	-1	3.6
- Cc1cc(C)n2nc(CNS(=O)(=O)c3cccc([N+](=O)[O-])c3)nc2n1
  9	3.1	i	-6	12	-1.7	0.64	-8	-1.2
- O=C(NCCNC(=O)c1ccccc1O)c1ccccc1O
  3	0.4	i	-21	-16	0.7	0.66	7	-3.7
- Cc1ccc(N2C(=O)CC(Cc3cccc(C)c3)C2=O)cc1 (stereo unspecified)
  1	-1.9	i	-20	-19	-3.4	0.67	-5	-0.4
- O=C(NCc1cccc(OC(F)(F)F)c1)C1CCC(=O)N(Cc2cccc(F)c2)C1 (stereo unspecified)
  -4	3.6	i	-10	-19	-2.2	0.71	-2	0.5
- COCc1cc(C)nc(N/N=C/c2ccc(-c3cc(C(=O)O)ccc3Cl)o2)c1C#N
  x	x	i	-11	-6	0.2	x	18	x
- Cc1csc(NC(=O)c2c(-c3ccccc3)noc2C)n1
  1	-1.6	i	-1	-1	-1.4	0.69	-21	2.6
- CC(=O)N1c2ccccc2NC2=C(C(=O)CC(C)(C)C2)C1c1cccn1C (stereo unspecified)
  2	-0.2	i	14	3	2.5	0.68	-1	5.6
- C=CCn1c(=N)n(CC(=O)c2ccc(OC)cc2)c2ccccc21
  6	1.5	i	-9	-8	-2.3	0.67	0	5.1
- COc1ccc(NC(=O)c2cn3c(nc4ccccc43)c(C#N)c2C)cc1
  -5	-2.4	i	8	8	-2.4	0.7	4	-98
- Cc1cccc2cc(C#N)c(NCc3ccccc3)nc12
  2	4.5	i	9	-5	-7.7	0.65	-29	-30
- Clc1ccccc1/C=C/c1nc(-c2ccccn2)no1
  2	-5.7	i	-18	-5	-2.8	x	3	x
- O=C(COC(=O)c1ccc(=O)n(Cc2ccccc2)n1)Nc1ccc2c(c1)OCCO2
  -6	1.7	x	x	x	x	0.74	-7	4.0
- CCc1[nH]nc2c1C(c1ccc(Br)s1)C(C#N)=C(N)O2 (stereo unspecified)
  12	-0.9	x	x	x	x	0.65	34	6.1
- CCOc1ccc(CCN2C(=O)C(=O)N([C@@H](CC(C)C)CN3CCC[C@@H]3CN3C(=O)C(=O)NC[C@@H]3Cc3ccccc3)C[C@@H]2CC(C)C)cc1
  9	1.5	i	-21	-17	2.2	x	x	x
- CCN(CC)S(=O)(=O)c1cccc(C(=O)NC(Cc2c[nH]c3ccccc23)c2nnc3n2CCCCC3)c1 (stereo unspecified)
  5	1.4	x	x	x	x	0.68	-4	1.5
- N#C/C(=C/c1cn[nH]c1-c1cccc(Br)c1)C(=O)O
  -9	2.2	i	2	-2	-4.9	0.68	5	6.5
- O=c1cc(O)c(-c2ccc(Cl)cc2)c(Cl)[nH]1
  4	-1.7	i	-10	7	0.0	0.69	-3	1.0
- CCn1c(CNc2ccc(C(=O)O)cc2)nc2ccccc21
  1	1.2	i	11	13	-1.2	0.69	-2	-0.1
- O=C(COC(=O)C1CCN(S(=O)(=O)c2cccs2)CC1)Nc1ccc(F)cc1F
  -4	0.4	i	-1	-8	-4.0	0.68	4	5.2
- COc1ccccc1C(=O)NC(=O)COC(=O)Cc1n[nH]c(=O)c2ccccc12
  -13	0.3	i	10	2	2.6	0.58	x	1.2
- CC(=O)NC12CC3CC(C1)CC(C(=O)Nc1nc4ccc(F)cc4s1)(C3)C2
  2	-0.8	i	-36	-42	-9.2	0.68	86*	3.6
- O=C(CSc1ncn[nH]1)NCCc1ccccc1
  0	1.4	x	x	x	x	0.78	-1	-1.6
- O=C(NC1CCS(=O)(=O)C1)c1ccc(N2CCCCC2)c([N+](=O)[O-])c1 (stereo unspecified)
  -5	5.7	i	-14	-10	-2.9	0.71	-5	0.5
- O=C(Nc1ccc(-c2nc3ccccc3o2)cc1)c1ccc2c(c1)OCO2
  -14	3.6	i	16	9	-2.2	0.75	0	-32
- CCN(CC)CCn1c2ccccc2c2nc3ccc([N+](=O)[O-])cc3cc21
  8	30	i	-25*	-14*	0.9*	0.71	-10	6.7
- CCc1ccc(NC(=O)Cn2nnc(C(=O)NCCc3ccc(OC)c(OC)c3)c2N)cc1
  11	-2.1	i	-3	9	0.9	0.69	-4	3.8
- CCCc1cc(=O)n2[nH]c(NCc3ccccc3Cl)nc2n1
  x	-2.1	x	x	x	x	0.67	4	-0.4
- OCc1ccccc1O[C@@H]1O[C@H](CO)[C@@H](O)[C@H](O)[C@H]1O
  3	0.3	i	x	x	x	0.76	5	0.5
- CC(=O)Nc1cccc(NC(=O)c2cc(Cl)ccc2Cl)c1
  3	-2.1	i	15	9	-7.8	0.63	-7	0.4
- COc1cccc(C2=Nn3c(nnc3-c3ccccc3O)SC2)c1
  -5	11	x	x	x	x	0.74	x	5.1
- O=C(Nc1cccc(-c2nc3ccccc3c(=O)o2)c1)c1ccccc1
  -3	-4.5	x	-20*	-15*	4.1*	0.68	x	-0.4
